AID504770: E. coli YBA685 growth inhibition, screen for V. cholerae RctB inhibitors; E. coli YBA685 rctB-dependent plasmid, OD600 growth, 3 h; stronger effect = lower value; z-score (concentration not given with the values); 0.27% of 130,000 active; AID 504770;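 active = z-score under -2 on both plates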;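 also: wells of about 30 µL received 100 nL stock; score is relative to mean and SD of the test wells; the first replicate is given; strong numbers were not always called active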
Ba CapD inh: inhibitors of Bacillus anthracis CapD enzyme. purified CapD enzyme, fluorescence intensity read-out; stronger effect = lower value; some hits fall short of the stated cut. z-score (concentration not given with the values). 0.23% of 140,000 active. AID 492967;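 active = z-score under -4 in either of two replicates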;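 also: stock transfer was 100 nL into about 40 µL; score is relative to mean and spread of the plate; one replicate is shown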
Starred values were filed as active, the others as inactive; i = inactive; nt = not tested or not shown.

SMILES | AID504770 | Ba CapD inh
O=C(CSCc1ccccc1)N1CCc2ccccc21 | -1.1 | -0.4
Cc1nc(-c2ccccc2)cs1 | -0.35 | 0.105
CC(C)CN(CC(C)C)S(=O)(=O)c1ccc(-c2ccc(=O)[nH]n2)s1 | -0.45 | -0.55
CC(C)OC1(O)C(=O)c2ccccc2C(=O)C1(O)OC(C)C (stereo not given) | -1.05 | -0.975
FC(F)(F)c1cnc(-n2cncn2)c(Cl)c1 | -0.3 | 0.425
O=C(CSc1nnc(SCC(=O)NC2CC2)s1)NC1CC1 | 1.25 | nt
COc1ccc(C(=O)N2CCC(O)(c3ccc(Cl)cc3)CC2)cc1OC | -0.25 | 0.28
CCCCCCCCc1cnc(-c2ccc(OCCCCCC)cc2)nc1 | nt | -0.06
CC1Cc2ccccc2N1C(=O)Nc1c[nH]c2ccccc12 (stereo not given) | 0 | nt
COc1cccc2c1OC(c1ccco1)N1N=C(c3ccccc3)CC21 (stereo not given) | 0 | nt
COCCNC(=O)c1ccc2c(=O)n(Cc3ccco3)c(SCC(=O)Nc3ccc(C)c(Cl)c3)nc2c1 | nt | -0.185
CC1=C(c2ccccc2)S(=O)(=O)NC1=NC1CCN(Cc2ccccc2)CC1 | -0.35 | -0.065
CCOC(=O)c1cc2c(=O)n3ccccc3nc2n(C2CCCCC2)c1=N | 1.7 | 25
Cc1cccc(Nc2cc(Nc3ccc4c(c3)n(C)c(=O)n4C)ncn2)c1 | -1.05 | 1.02
Oc1ccc(-n2nnnc2SCc2ccc(-n3ccnc3)cc2)cc1 | -0.05 | nt
CCOC(=O)CSc1nnc(NC(C)=O)s1 | 1.15 | -0.505
CCOc1ccc(S(=O)(=O)N2CCN(c3cccc(C)c3C)CC2)c2cccnc12 | nt | -0.06
Cc1ccc(Nc2cc(N3CCCCC3)c3nonc3c2[N+](=O)[O-])cc1C | nt | -0.1
CCN(CC1COc2ccccc2O1)C(=O)c1cnccn1 (stereo not given) | 1.45 | nt
CCN(c1ccccc1)S(=O)(=O)c1ccc(C(=O)N2CCN(c3ncccn3)CC2)cc1 | -0.25 | nt
Cc1ccc(N=C2NC(=O)CC(C(=O)Nc3ccc(Cl)cc3)S2)cc1C (stereo not given) | -0.05 | 1.15
Cc1nn(-c2ccccc2)nc1CNC(=O)c1ccc2nsnc2c1 | -0.2 | 0.48
Cn1c2c(c(=O)n(C)c1=O)CN(C1CCCC1)CN2 | -0.85 | 6.14
COc1cccc(NC(=O)Cn2ncc3c2-c2ccccc2OC3)c1 | 0.4 | -0.655
Cc1ccc(S(=O)(=O)N2CCN(C3=CC(=O)CC(C)(C)C3)CC2)cc1 | 0.7 | nt
SMILES | AID504770 | Ba CapD inh
COc1cc(CCC(=O)NNC(=S)Nc2ccc(F)cc2)cc(OC)c1OC | nt | -0.31
COc1cccc(NC(=O)c2ccc(-n3cccn3)nc2)c1 | -0.95 | -0.55
O=C1CC(c2cccc(O)c2)C2=C(CC(c3ccc(F)cc3)CC2=O)N1 (stereo not given) | 0.15 | -0.595
Nc1no[n+]([O-])c1C(=O)NCCO | -1.8 | nt
CCNc1nc(NC(C)C)nc(Oc2ccc(C(=O)OC)cc2)n1 | nt | 0.535
Cc1cc(C)n(CCCNC(=O)c2ccccc2NC(=O)c2ccco2)n1 | 2.7 | nt
CCOC(=O)c1cnc2c(Cl)cc(Cl)cc2c1NCCOCCO | -1 | 2.47
CCOC(=O)C1=C(N)OC2=C(C(=O)CCC2)C1c1ccc(CC)s1 (stereo not given) | nt | -0.6
CCOC(=O)C1=C(C)OC2=C(C(=O)CC(C)(C)C2)C1c1ccc(CC)s1 (stereo not given) | 0.05 | -0.36
CN1CCN(C(=O)c2cc3c(n(-c4ccc(Cl)cc4)c2=O)CC(C)(C)CC3=O)CC1 | nt | 0.195
CC1CCCC(C)N1C(=O)COC(=O)/C=C/c1cccs1 (stereo not given) | 0.65 | nt
c1ccc(Cc2nc(-c3ccccc3)no2)cc1 | -0.55 | -0.25
CCCNC(=O)c1cc2c(s1)CS(=O)(=O)C2 | 0.45 | -2.61
O=C(NC1CCCCCCC1)c1cc(=O)[nH]c2ccc(S(=O)(=O)N3CCCCC3)cc12 | 2.2 | -0.42
O=C(CN1CCN(c2ccc(C(F)(F)F)cn2)CC1)c1ccccc1 | 2.5 | 0.025
COc1ccccc1CNC(=O)CCS(=O)(=O)c1cccs1 | 1.95 | -0.265
Cc1cc(C)c2c(=O)n(CC(=O)Nc3ccc(Br)c(C)c3)sc2n1 | 2 | 0.005
CCCCOC1CCC(OCCCC)OC1 (stereo not given) | 0.45 | nt
O=C(NCCN1CCCC1)C(c1ccccc1)N1Cc2ccccc2C1=O (stereo not given) | 0.3 | -0.035
O=C(O)C1CCN(C(=O)CCc2ccccc2)CC1 | 2.4 | -0.25
COc1cc2ccncc2cc1OC | 0.65 | nt
Cc1cc(Cl)ccc1OCCCC(=O)NC1CCSC1=O (stereo not given) | -0.05 | 80.1
CCOc1cccc2c1OC1(CCCCC1)N1N=C(c3cccnc3)CC21 (stereo not given) | nt | -0.47
Cc1cc(C)c(N=c2scc(C)n2Cc2ccccc2)c(C)c1 | -0.85 | 0.07
Cn1cc(CCC(=O)NC2CC2)c2ccccc21 | 1 | 1.19

An excerpt of these results, field by field.
COc1cccc(NC(=O)c2ccc(-n3cccn3)nc2)c1
  AID504770: -0.95
  Ba CapD inh: -0.55

O=C1CC(c2cccc(O)c2)C2=C(CC(c3ccc(F)cc3)CC2=O)N1 (stereo not given)
  AID504770: 0.15
  Ba CapD inh: -0.595

Next part:
SMILES | AID504770 | Ba CapD inh
Cc1c(-c2ccccc2)oc2ccccc2c1=O | 2.15 | -0.745
N#CC(C#N)=c1s/c(=C\c2ccc(-c3ccc(S(=O)(=O)N4CCOCC4)cc3)o2)c(=O)n1Cc1ccco1 | 0.75 | nt
CCCOc1cc(C(=O)O)ccc1OC | nt | -0.65
O=C(Nc1ccc(Cl)cc1)C1COc2ccccc2O1 (stereo not given) | -1.2 | nt
O=C(NC1CC1)c1ccc2c(c1)[nH]c(=S)n1c3ccccc3nc21 | -0.75 | 3.9
Cc1ccc2c(c1)-c1ccccc1S(=O)(=O)N2S(=O)(=O)c1ccc2ccccc2c1 | nt | -0.225
Cc1ccc(S(=O)(=O)CCN2CCN(CCS(=O)(=O)c3ccc(C)cc3)CC2)cc1 | nt | 0.3
O=C(OCC(F)(F)C(F)F)c1ccc(O)cc1 | -1.05 | nt
CN1c2ccsc2C(=O)/C(=C\Nc2ccc(F)cc2)S1(=O)=O | 0.4 | -0.435
Cc1ccc(C2C(C=C3C(=O)NC(=O)NC3=O)=C(c3cccs3)Oc3ccccc32)cc1 (stereo not given) | 0.1 | -0.425
COc1ccccc1OCCSc1nc2ccccc2n1CC(N)=O | nt | 0.055
Cc1ccc(S(=O)CC(O)CSc2nc(C)c3c(c2C#N)CCCC3)cc1 (stereo not given) | nt | -0.02
CN(C)c1ccc(/C=N/NC(=O)N/N=C/c2ccc(N(C)C)cc2)cc1 | -0.3 | 27.1
CCn1c(=O)n(CC)c2cc(N3CCCC3)c(NC(=O)C(C)(C)C)cc21 | 1.7 | -0.45
Cn1c(=O)n(CC(=O)N2CCN(c3ccccc3F)CC2)c(=O)c2ccccc21 | nt | -0.14
Cc1nc2sc3c(NC4CCCCC4)ncnc3c2c2c1COC(C)(C)C2 | 0.5 | -1.15
CN(C)c1ccc(/C=C2\C(=O)ON=C2c2cccs2)c(Cl)c1 | 0.7 | 0.605
CCOC(=O)c1c(NC(=O)CSc2nnc(C)s2)sc2c1CCCCC2 | 1.8 | -0.325
Cc1nnsc1C(=O)n1nc(C(C)(C)C)cc1C(C)(C)C | 0.1 | 0.66
CC1(C)C(=O)OC(c2ccc(F)cc2)C(C)(C)C1=O (stereo not given) | -0.4 | i
CN[C@H](CC(C)C)C(=O)N[C@H]1C(=O)N[C@@H](CC(N)=O)C(=O)N[C@H]2C(=O)N[C@H]3C(=O)N[C@H](C(=O)N[C@H](C(=O)O)c4cc(O)cc(O)c4-c4cc3ccc4O)[C@H](O)c3ccc(c(Cl)c3)Oc3cc2cc(c3O[C@@H]2O[C@H](CO)[C@@H](O)[C@H](O)[C@H]2O[C@H]2C[C@](C)(N)[C@H](O)[C@H](C)O2)Oc2ccc(cc2Cl)[C@H]1O | nt | -0.455
O=C1C2C3C=CC(CC3)C2C(=O)N1c1ccccc1F (stereo not given) | nt | 0.395
O=C(N/N=C/c1cc([N+](=O)[O-])ccc1Cl)C1CC1c1ccccc1 (stereo not given) | nt | -0.52
CCc1ccc(C(=O)On2c(-c3ccc(C(C)(C)C)cc3)nc3ccccc3c2=O)cc1 | nt | -0.995
COc1cc(C2N=C(N)Nc3nc4ccccc4n32)cc(OC)c1OC (stereo not given) | -0.55 | nt
SMILES | AID504770 | Ba CapD inh
NC1=NC(=O)CC(C(=O)NCCc2ccccc2)S1 (stereo not given) | -0.65 | nt
COC(=O)CC1C(=O)NCCN1C(=O)NC1CCCCC1 (stereo not given) | 0.3 | 0.315
Cc1cccc(C(C)C)c1NC(=O)c1ccncc1 | -0.25 | 0.065
CS(=O)(=O)CS(=O)(=O)NNc1ncc(C(F)(F)F)cc1Cl | -0.95 | 0.32
COC(=O)c1cccc(N2C(=O)C3C4C=CC(CC4)C3C2=O)c1 (stereo not given) | nt | 1.3
CC(=O)N1c2ccccc2N2C(c3c(C)cc(C)cc3C)=NON12 | nt | -0.465
CCc1ccc(-n2c(=S)sc3c(=O)n(-c4ccccc4)c(SCC#N)nc32)cc1 | 1.35 | 72.5
COc1ccc2oc(=O)c(-c3csc(C)n3)cc2c1 | -0.1 | 1.02
COC(=O)CCSCc1cn2ccsc2n1 | 0.15 | nt
O=C1c2ccccc2C2(c3ccc(Cl)cc3)NCCN12 (stereo not given) | 0.3 | nt
Cc1cc(O)c2c(-c3ccccc3)cc(=O)oc2c1 | 2.4 | -0.98
CCOC(=O)c1ccc(Nc2nnc(-c3cc4cc(Br)ccc4oc3=O)s2)cc1 | nt | -0.225
CCOC(=O)N1CCN(Cc2cccc3ccccc23)CC1 | 1.45 | -0.095
CC1(C)CC(=O)C2=C(C1)c1c(ccc3ccccc13)NC2c1cc(Cl)cc(Cl)c1OCc1ccc(Cl)cc1Cl (stereo not given) | nt | 4.28
CC1=NN(C(=O)c2ccccc2)C(C)(NN(C)c2ccccc2)C1 (stereo not given) | 2 | -0.295
CCc1ccc(C2CC(=O)NC(SCC(=O)Nc3ccc(Br)cc3)=C2C#N)cc1 (stereo not given) | nt | 0.135
O=C(NCCOc1ccccc1-c1ccccc1)c1ccco1 | 0.6 | -0.09
CCc1nnc(NC(=O)c2sc(C)nc2C)s1 | -0.3 | 0.395
COc1ccc(CCN(C)C(=O)c2ccc3c(=O)n4c(nc3c2)CCCCC4)cc1OC | -0.15 | nt
CC(C)(C)c1ccc(C(=O)CC(SC2CCCCC2)C(=O)O)cc1 (stereo not given) | -0.05 | 0.025
Cc1nn(-c2ccccc2)nc1CNS(=O)(=O)c1cccs1 | -3.3* | -0.15
Cc1nc2cc(Cl)ccc2c(=O)n1-c1nc2ccccc2[nH]1 | -1.3 | 27.7
Cc1cccc(C)c1NC(=O)C(Cc1ccccc1)N1C(=O)C2C3c4ccccc4C(c4ccccc43)C2C1=O (stereo not given) | nt | 0.165
N#Cc1c(-c2ccccc2)nc(SCc2ccccc2Cl)[nH]c1=O | nt | 1.83
CCN(CC)C(=O)C1CCCN(c2ncnc3c2c(-c2ccccc2)cn3-c2ccccc2)C1 (stereo not given) | nt | 0.335
SMILES | AID504770 | Ba CapD inh
CCN(CC)c1ccc(/C=c2/sc3nc(=O)c(C)nn3c2=O)cc1 | nt | -0.63
COc1ccc(CCNC(=O)c2ccc3nc4ccc(Cl)cc4c(=O)n3c2)cc1OC | 0.65 | -0.22
Cc1ccc(C(=NCc2ccccc2)NC#N)cc1 | 1.3 | -0.03
Cc1c(Nc2ncccc2C(=O)O)cccc1C(F)(F)F | nt | 1.24
O=C(O)CSC1=NCCCN1 | 0.35 | nt
COc1ccc2[nH]c3c(=O)n(CCC(=O)NC4CCCCCC4)c(=S)[nH]c3c2c1 | 1.3 | -0.18
CCC(=Nc1ccccc1N)c1c(O)n(Cc2ccccc2)c(=O)[nH]c1=O | -0.45 | -0.365
Cc1cccc(NC(=O)Cn2cc(C(=O)C3CC3)c3ccccc32)c1 | -0.1 | 0.13
COc1ccc(S(=O)(=O)n2cnc3cc(C)c(C)cc32)cc1OC | 2.35 | -0.365
C=Cc1c(S(C)(=O)=O)sc(C(=O)OCC)c1C | -0.95 | -0.15
Cc1cc(Oc2ccc(N)cn2)ccc1Cl | nt | 9.12
CC(=O)Nc1nc2ccc3ccccc3c2s1 | 0.9 | nt

Structures above that contain a thiophene ring, fused or not:
SMILES | AID504770 | Ba CapD inh
CC(C)CN(CC(C)C)S(=O)(=O)c1ccc(-c2ccc(=O)[nH]n2)s1 | -0.45 | -0.55
CCOC(=O)C1=C(N)OC2=C(C(=O)CCC2)C1c1ccc(CC)s1 (stereo not given) | nt | -0.6
CCOC(=O)C1=C(C)OC2=C(C(=O)CC(C)(C)C2)C1c1ccc(CC)s1 (stereo not given) | 0.05 | -0.36
CC1CCCC(C)N1C(=O)COC(=O)/C=C/c1cccs1 (stereo not given) | 0.65 | nt
CCCNC(=O)c1cc2c(s1)CS(=O)(=O)C2 | 0.45 | -2.61
COc1ccccc1CNC(=O)CCS(=O)(=O)c1cccs1 | 1.95 | -0.265
CN1c2ccsc2C(=O)/C(=C\Nc2ccc(F)cc2)S1(=O)=O | 0.4 | -0.435
Cc1ccc(C2C(C=C3C(=O)NC(=O)NC3=O)=C(c3cccs3)Oc3ccccc32)cc1 (stereo not given) | 0.1 | -0.425
Cc1nc2sc3c(NC4CCCCC4)ncnc3c2c2c1COC(C)(C)C2 | 0.5 | -1.15
CN(C)c1ccc(/C=C2\C(=O)ON=C2c2cccs2)c(Cl)c1 | 0.7 | 0.605
CCOC(=O)c1c(NC(=O)CSc2nnc(C)s2)sc2c1CCCCC2 | 1.8 | -0.325
Cc1nn(-c2ccccc2)nc1CNS(=O)(=O)c1cccs1 | -3.3* | -0.15
C=Cc1c(S(C)(=O)=O)sc(C(=O)OCC)c1C | -0.95 | -0.15
